# Screening results (PubChem BioAssay)
# Bfl-1 A1 inh – inhibitors of the anti-apoptotic protein A1, read as caspase activation. MEF A1-2A-BIM cells, Caspase-Glo 3/7 luminescence, 3 h; percent of clofoctol response, vehicle zero. caspase activation, % (concentration not given with the values). hit rate 0.066% among 330,000. AID 2462;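 active = over half of replicate activation scores above 10%, or exactly half above 10 with the replicate mean above 10; inconclusive = replicate mean below 10 yet half the replicates above 10; inactive = over half of replicates below 10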;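 note: wells of about 30 µL received 50 nL stock; many hits fall short of the cut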
# RanGTP-Imp inh – disruptors of Ran-importin-beta complex formation – biochemical, FRET, CFP-Ran, YFP-importin-beta, homogeneous, primary screen | cell-free CFP-Ran/YFP-importin-beta FRET ratio | inhibition, % (no concentration beside the values) | hit rate 1.1% among 300,000;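 active = most replicates above 15%; inconclusive = exactly half above 15%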;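 note: 0% = DMSO wells and 100% = Ran loaded with GDP instead of GTP; wells of about 40 µL received 100 nL stock; the first replicate is given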
# Beta2AR agonist – activates human beta-2 adrenergic receptor causing internalization. Am2.2-beta2AR cells, FAP receptor internalization, flow cytometry; reference of the scale not given here. P07550. response, % (no concentration beside the values). hit rate 0.43% among 340,000;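 active = response above a set limit, near 3 SD of response in nonfluorescent compounds, cut at about 42% in these data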;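 note: stock transfer was 100 nL into about 11 µL; a reference agonist was the positive control; negative values mostly stem from fluorescent compounds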
# Target sequence (P07550 whole entry, looked up): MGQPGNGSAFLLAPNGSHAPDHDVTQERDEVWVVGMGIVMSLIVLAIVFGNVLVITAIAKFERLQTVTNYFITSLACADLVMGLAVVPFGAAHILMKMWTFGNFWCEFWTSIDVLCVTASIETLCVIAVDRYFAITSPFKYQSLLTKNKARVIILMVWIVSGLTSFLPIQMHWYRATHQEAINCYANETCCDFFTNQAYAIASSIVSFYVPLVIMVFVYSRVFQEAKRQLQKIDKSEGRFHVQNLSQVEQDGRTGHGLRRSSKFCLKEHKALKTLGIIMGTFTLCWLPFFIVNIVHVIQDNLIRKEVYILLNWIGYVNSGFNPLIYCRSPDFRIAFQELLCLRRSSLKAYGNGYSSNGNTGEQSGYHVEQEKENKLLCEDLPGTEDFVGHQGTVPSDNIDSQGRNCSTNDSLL
# T cruzi repl – T. cruzi replication inhibition; T. cruzi beta-gal in NIH3T3, luminescence, 90 h; inhibition, % (no concentration beside the values); hit rate 1.4% among 300,000; AID 1885;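 active = mean inhibition across valid replicates above about 55%, limit read from the data; inconclusive = mean below that limit but half or more replicates reach it; inactive = mean below it, under half of replicates reach it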;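 note: signal also drops with host cell toxicity which is not excluded here; 0% = plate median of DMSO wells and 100% = zero luminescence signal; higher percent means less beta-gal luminescence so fewer parasites; stock transfer was 50 nL into about 50 µL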
# Calb FLC – C. albicans growth modulation with fluconazole; C. albicans CaCi-2 (fluconazole-resistant clinical isolate) + fluconazole, Alamar Blue growth, 48 h; growth inhibition, % (concentration not given with the values); hit rate 0.57% among 300,000; AID 1979;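 active = most replicates above 75%; inconclusive = exactly half above 75%; inactive = most below 75%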;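 note: all wells also contain fluconazole at 8 µg/ml as a sub-toxic cotreatment; 0% = median of DMSO wells and 100% = median of geldanamycin control wells; wells of about 8 µL received 7.5 nL stock; the first replicate is given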
# Beta apoptosis – beta cell apoptosis inhibition; INS-1E cytokine-induced death, ATP luminescence, 48 h; percent of positive-control rescue, neutral wells zero; protection from apoptosis, % (test concentration not listed); hit rate 0.8% among 300,000; AID 435005;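 active = all replicates at 75% or more, or half of them and the mean; inconclusive = half reach 75% but not the mean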;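 note: 0% = cytokine-treated negative control wells and 100% = positive control rescue; higher means more ATP so stronger rescue from cytokine killing; wells of about 40 µL received 100 nL stock; the first replicate is given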
# LANA-H2A inh – blocks KSHV LANA binding to histone H2A/H2B; cell-free LANA-H2A/H2B peptide, fluorescence polarization; inhibition, % (no concentration beside the values); hit rate 0.6% among 320,000; in the data active = inhibition mostly above about 10%, no sharp cut-off; inactive = mostly below about 6.7%;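 note: stock transfer was 7.5 nL into about 10 µL; 0% = median of vehicle wells and 100% = median of positive control wells; one replicate is shown; the record names a cut of 25% in any replicate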
# UCH37 DUB inh – inhibitors of human deubiquitinating enzyme UCH37; inhibition, % (concentration not given with the values); Q9Y5K5; purified proteasome/UCH37, Ub-AMC cleavage fluorescence; hit rate 0.33% among 330,000;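 active = mean of two replicates above 20%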;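 note: 0% = compound-free wells with enzyme and 100% = wells lacking proteasome; stock transfer was 100 nL into about 20 µL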
# Target sequence (Q9Y5K5 whole entry, looked up): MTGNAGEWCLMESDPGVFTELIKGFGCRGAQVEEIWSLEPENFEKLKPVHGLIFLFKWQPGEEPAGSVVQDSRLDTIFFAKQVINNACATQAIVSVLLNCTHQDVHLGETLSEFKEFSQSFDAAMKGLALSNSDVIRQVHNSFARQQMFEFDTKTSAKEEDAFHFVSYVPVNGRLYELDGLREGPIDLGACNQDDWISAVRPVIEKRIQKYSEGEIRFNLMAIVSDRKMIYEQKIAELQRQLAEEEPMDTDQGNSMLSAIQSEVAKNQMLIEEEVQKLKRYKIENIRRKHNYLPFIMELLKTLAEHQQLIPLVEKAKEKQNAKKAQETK
#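 assay system = human UCH37 enzyme supplied as purified proteasome complex | amount = proteasome at 0.15 nM in the dispensed enzyme solution | schedule = 30 min compound-proteasome preincubation then 25 min substrate reaction, room temperature | measured by = fluorescence, ex 355 nm, em 460 nm | benchmarks = no-proteasome wells (full inhibition) and compound-free wells (no inhibition)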
# * = called active by the depositor; ? = inconclusive; / = not tested or not shown. An unsorted share of the library, and some 4.3% of all compounds hit somewhere here.
compound,T cruzi repl,UCH37 DUB inh,Beta apoptosis,LANA-H2A inh,RanGTP-Imp inh,Calb FLC,Beta2AR agonist,Bfl-1 A1 inh
CCOC(=O)Cc1csc(NC(=O)/C=C/c2cccc(Br)c2)n1,-4,0.2,-2,-0.8,?,31,0,0.4
CC(C)(C)OC(=O)NCCCCCNC(=O)c1[nH]cnc1C(=O)N[C@@H](Cc1ccccc1)C(=O)OCc1ccccc1,-11,2.3,-5,11,5.2,-1,14,0.1
CC(Sc1nc(-c2ccccc2)cc(=O)[nH]1)C(=O)O (stereo not given),-3,0.8,-1,-1.6,-1.6,-8,-2,0.3
CC(C)n1nc(C(=O)NCc2ccc3c(c2)OCO3)c2ccccc2c1=O,3,2.3,-2,-7.0,3.6,3,-2,-0.1
CCCN(CCC)S(=O)(=O)c1ccc(NC(=O)C2CCCO2)cc1 (stereo not given),/,2.1,-3,-0.6,-0.2,-5,5,0.3
CCCN1CCN(C(=O)CCCn2c(C)c3cnn(-c4ccccc4)c(=O)c3c2C)CC1,3,-0.3,2,-0.5,-3.0,-2,13,0.1
O=C1C(=Cc2ccc(Br)o2)C(=O)c2ccccc21,/,13,-1,-3.1,/,/,3,1.6
CCN(CC)c1ccc(C=Nc2ccccc2)c(O)c1,-4,7.8,-8,0.0,-3.2,6,7,1.4
COc1cc(S(=O)(=O)n2cnc3ccccc32)ccc1Br,0,5.7,-6,-2.7,-0.8,0,-12,-2.5
COc1ccc(C2=NN(C(C#N)c3ccc(OC)cc3)C(c3ccccc3)C2)cc1 (stereo not given),11,2.2,-2,-5.3,-3.6,-14,-3,-1.5
COc1ccc(-c2csc(NC3OC(=O)c4c3ccc(OC)c4OC)n2)cc1OC (stereo not given),7,5.6,-45,-0.4,3.2,-3,9,-0.6
CC1(C)CNC(=O)c2sc(NC(=O)c3ccccc3)nc2C1,3,-14,-1,18*,0.6,27,-3,0.1
CCOC(=O)Nc1ccc(C(=O)/C=C/c2ccccc2)cc1,-1,1.3,16,-2.8,6.9,1,-3,0.6
COc1cc(OC)c(OC)cc1CN(C)CC1CCCN(CCc2ccccc2F)C1 (stereo not given),33,3.3,-6,-2.4,?,0,-5,0.7
COc1ccccc1CNC(=O)CN1C(=O)NC(c2ccccc2)(c2ccccc2)C1=O,/,3.7,-1,0.4,/,/,-3,1.1
Cc1ccc2nsnc2c1S(=O)(=O)N(CCO)Cc1cc2cc3c(cc2[nH]c1=O)OCCO3,-2,2.8,-8,-1.2,?,-9,6,0.6
C[C@H](CO)N1C[C@H](C)[C@@H](CN(C)Cc2ccccc2)Oc2c(NS(=O)(=O)c3ccccc3)cccc2C1=O,/,5.1,-12,-2.3,/,/,2,0.1
Cc1c(C(=O)O)oc2c1C(=O)CC(C)(C)C2,-3,0.5,-1,2.7,-0.5,13,13,0.4
CCC(CC)C(=O)Nc1cccc(C(=O)N2CCCC2)c1,-26,2.0,/,-0.5,-2.0,-9,9,0.7
CSCCC(NC(=O)COc1ccccc1)C(=O)OCCOc1ccc(C)cc1 (stereo not given),/,2.8,-12,4.6,/,/,-1,-0.7
S=c1[nH]nc2nnc3ccccc3n12,-4,9.5,8,-3.1,3.4,11,7,0.2
Cc1occc1C(=O)Nc1ccccc1C(=O)O,-3,0.7,2,-1.0,0.9,-2,2,-0.4
COc1ccc(CNC(=O)C2(CC3CC(c4ccccc4)=NO3)CCN(C(=O)OC(C)(C)C)CC2)cc1 (stereo not given),18,0.0,-1,-0.3,2.9,16,-8,1.0
COc1ccc(CCNC(=O)C2CC2)cc1,-23,0.0,-10,-0.9,1.3,-23,-3,0.1
CCCc1nn(-c2cc(Cl)ccc2OC)c2c1C(=O)CC(C)(C)C2,9,4.9,4,0.1,-0.4,11,3,-0.1
CCCCn1c(=O)n(CC(=O)NCc2ccc(C)cc2)c(=O)c2c1nc(CO)n2CCC,-4,-4.1,-2,-1.8,7.2,-2,-1,0.2
Cc1occc1C(=O)Nc1ccc(Br)cc1F,-4,0.1,5,3.2,5.9,6,1,-0.8
O=C(c1ccccc1Oc1ccccc1)N1CCN(c2ccccc2F)CC1,1,-0.2,-5,-1.3,?,-19,2,2.4
O=C(O)c1ccc(S(=O)(=O)N2CCc3ccccc3C2)cc1,-9,3.6,-4,4.5,4.9,2,0,0.6
CCCCOc1ccc(C(=O)N=c2sccn2C)cc1OC,11,2.1,0,-11,0.6,42,-8,-1.4
COc1cc(C(=O)N(Cc2ccc(N(C)C)cc2)C2CCS(=O)(=O)C2)cc(OC)c1OC (stereo not given),-3,-0.9,-1,-0.3,1.6,-3,-2,0.1
O=C(NCc1cccc(C(F)(F)F)c1)c1ccc2c(c1)OCO2,1,-0.2,/,/,-1.2,-9,-6,/
CC(=O)N(c1nc(CCl)cs1)c1cccc(C)c1C,-14,-2.2,2,4.8,5.8,-4,5,0.4
CN(Cc1c(F)cccc1Cl)C(=O)c1cnc2ccccc2n1,-6,3.6,-9,1.8,-2.8,-2,-2,0.0
C/C(=N\N=C(N)N)c1cccc([N+](=O)[O-])c1,7,/,0,-1.0,-1.5,-4,2,0.2
CCOc1ccc(/C(O)=C2/C(=O)C(=O)N(CC3CCCO3)C2c2ccc(C)o2)cc1 (stereo not given),-24,-3.0,5,-2.0,-0.9,-15,-1,-0.3
C/C(=N\NC(=O)CC1N=C(Cc2ccccc2)NNC1=O)c1ccncc1 (stereo not given),7,/,4,1.0,1.0,-2,-2,-0.3
CN(Cc1ccccc1)S(=O)(=O)c1ccc(Cl)c(C(=O)O)c1,-13,2.9,1,0.0,1.6,-5,7,0.3
Cn1c(-c2cc(Br)ccc2O)n[nH]c1=S,-10,2.9,-8,-3.8,-2.9,-6,13,0.0
Cn1cc(C(=O)N2CCc3ccccc3C2)c(=O)c2cc(S(=O)(=O)N3CCOCC3)ccc21,10,6.4,4,-0.9,0.1,-4,4,-0.8
Cc1ccnc(S(=O)(=O)Cc2ccc([N+](=O)[O-])cc2)n1,-23,3.7,7,-1.0,0.6,3,0,0.5
Cc1nc(SCC(=O)NCC(F)(F)F)c2c(-c3cccs3)csc2n1,7,-2.0,3,4.9,1.7,-22,-19,1.3
COc1ccc(CCNCc2ccccc2N2CCCC2)cc1,9,5.5,25,2.7,1.5,-22,-4,0.6
Cc1ccc2c(ccc(=S)n2C)c1,-12,7.5,2,-4.8,-3.1,5,-2,-0.9
O=C(CN1C(=O)S/C(=C\c2ccccc2)C1=O)NNC(=O)c1ccccc1O,-21,3.7,-2,0.1,2.0,-3,5,0.5
CCN(CC)CCNc1nc2c(c(=O)n(C)c(=O)n2C)n1C/C=C(/C)Cl,5,-0.2,2,2.1,-2.1,1,1,-0.4
O=C(CN1c2cccc3cccc(c23)S1(=O)=O)Nc1ccc(F)c(F)c1F,/,-30,-8,-3.2,/,/,7,-0.2
O=S(=O)(Nc1ccccc1F)c1ccc2nsnc2c1,-6,2.1,1,6.3,0.6,-2,3,0.3
CC(C)c1nnc(NC(=O)CCC(=O)N2CCN(c3ccc(Cl)cc3)CC2)s1,5,2.2,/,0.2,8.9,1,0,0.6
CCN(CC)C1=CC(=[N+]2CCCC2)CC(C)(C)C1,64*,11,46,1.0,-4.3,-36,-9,-1.2
CCOc1ccc(N(CC(=O)Nc2ccccc2C(=O)NCc2ccco2)S(C)(=O)=O)cc1,0,-0.3,3,0.5,?,-6,-9,1.2
COc1cc(-c2cc(C(=O)NCCc3ccc(S(N)(=O)=O)cc3)c3ccccc3n2)cc(OC)c1OC,-11,-18,-1,-0.4,1.4,-3,2,0.1
Cc1ccc(-n2c(C)cc(C(=S)N3CCOCC3)c2C)cc1C,17,3.2,32,-6.0,?,-10,-4,0.3
CCCNC1=C(C)C(=O)CC1,-18,-1.6,-8,-2.8,-3.6,48,1,0.6
O=C(Nc1cc(S(=O)(=O)N2CCOCC2)ccc1N1CCOCC1)c1cc(=O)[nH]c2ccccc12,-12,4.5,-1,0.8,1.3,1,1,0.6
O=C(/C=C/c1ccc(F)cc1)NCCCN1CCN(CCCNC(=O)/C=C/c2ccc(F)cc2)CC1,19,1.0,-1,1.5,0.0,-1,-6,1.8
CC/C(=N\NC(=O)c1ccc(-c2ccccc2)cc1)C12CC3CC(CC(C3)C1)C2,-4,/,-2,2.3,7.0,3,-1,-0.4
COc1ccccc1CNC(=O)CCC(=O)Nc1nnc(C)s1,-5,5.6,-2,-33,2.1,3,-2,0.1
C[N+]1(CC#CC(O)(c2ccccc2)c2ccccc2)CCCC1,-14,2.5,0,5.0,4.6,-6,36,0.4
C/C(CC(=O)NCc1ccccc1Cl)=N/NC(=O)c1ccccn1,-2,/,-5,0.1,1.6,-3,-3,-0.1

# (cont.)
compound,T cruzi repl,UCH37 DUB inh,Beta apoptosis,LANA-H2A inh,RanGTP-Imp inh,Calb FLC,Beta2AR agonist,Bfl-1 A1 inh
CCOC(=O)c1ccc(N2C(=O)CC(N3CCN(C(=O)c4ccco4)CC3)C2=O)cc1 (stereo not given),1,2.3,-3,1.5,1.1,-1,-4,-0.3
Cc1ccc(-c2nnc(SCC(=O)N3CCCC3)o2)cc1,-3,5.9,2,-2.6,-0.7,7,-15,-0.2
CCN(CC)C(=O)CSc1nc2c(sc(=S)n2-c2ccc(C)cc2C)c(=O)[nH]1,44,13,/,12,-1.5,13,-24,0.1
N#C/C(=C\Nc1ccc(F)c(Cl)c1)S(=O)(=O)c1ccccn1,8,8.5,4,-3.9,-1.5,11,6,-0.3
CCC(CC)C(=O)c1c[nH]c(C(=O)OC)c1,-11,0.1,0,5.1,1.6,2,-19,0.0
O=C(Cn1c(=O)c2c(ncn2Cc2ccccc2)n(Cc2ccccc2)c1=O)N1CCCC1,4,1.6,/,-2.3,-12,6,4,1.4
O=C(NCC(c1cccnc1)N1CCN(c2ccc(F)cc2)CC1)C1CCCCC1 (stereo not given),36,-0.4,-6,2.7,1.4,?,2,1.1
Cc1ccccc1C(=O)NC1CCN(Cc2nnnn2Cc2ccccc2)CC1,-11,2.0,-10,5.3,-3.9,3,-9,-0.3
Cc1ccc(-n2c(Cc3cccs3)nnc2SCC(N)=O)cc1,-3,0.0,-6,-3.3,0.0,-4,7,1.1
COc1cc(C(=O)NCCNC(=O)c2ccc(C)nc2)cc(OC)c1OC,-1,2.8,2,2.6,2.8,0,-7,0.3
Cc1ccc(NC(=O)CN(C)C(=O)c2cc(-c3cccs3)nn2-c2ccccc2)cc1,/,2.1,2,-1.0,/,/,4,0.1
CN1CCN(c2ccc(CNC(=O)c3ccco3)cc2)CC1,/,1.5,-4,-5.2,1.2,-4,-4,0.7
CCOc1ccc(/C=N\NC(=O)c2c(C)nc3cc(C)ccn23)cc1,1,/,1,-0.4,-3.1,7,22,-0.1
C=Cn1cc[n+](CC(=O)c2ccc(Br)cc2)c1,-14,1.6,/,-1.1,?,13,-6,0.1
COc1cc(C(=O)NC2CCCc3ccccc32)cc(OC)c1OC (stereo not given),4,5.0,0,-2.3,4.6,2,0,-0.5
CN1CCC(=NNC(=O)CN(c2cccc(Cl)c2)S(C)(=O)=O)CC1,7,3.7,-1,-3.4,0.8,-7,3,1.9
